From PubChem BioAssay
D2 agonist = Beta-Arrestin HTS for Positive Allosteric Modulators of the Human D2 Dopamine Receptor: Agonists | hit rate 0.084% among 360,000 | DiscoveRx PathHunter D2 beta-arrestin, luminescence, 90 min; 100% = 57 uM dopamine signal | D(2) dopamine receptor (Homo sapiens), P14416 | activation, % (concentration not given with the values); in the data active = activation above about 40%; inconclusive = about 15% to 40%; inactive = below about 15%; also: compound concentration not given in the record; the text of the record calls up to 30% inactive
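DiscoveRx PathHunter D2 beta-arrestin cells (2,100/well) attached overnight, then compound-stimulated 90 min at 37 C in HBSS/10 mM HEPES/0.1% Tween-20 buffer; beta-galactosidase complementation read by luminescence after 1 h at ambient temperature. Dopamine 57 uM final (EC100) as control.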
D2 PAM = Beta-Arrestin HTS for Positive Allosteric Modulators of the Human D2 Dopamine Receptor: Potentiators; D(2) dopamine receptor (Homo sapiens), P14416; DiscoveRx D2 beta-arrestin cells, luminescence, 90 min; 100% = 57 uM dopamine signal; potentiation, % (test concentration not listed); hit rate 0.23% among 360,000; active = potentiation of 50% or more; inconclusive = 30% to 50%; inactive = 30% or less;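 also: compound concentration not given in the record; tested on top of an EC20 dose of dopamine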
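PathHunter beta-arrestin assay in DiscoveRx D2 cells. Compounds were added with an EC20 of dopamine (50 nM final) for 90 min at 37 deg C. Luminescence was read 1 h after detection reagent, with 57 uM dopamine as the EC100 control.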
gsp antagonist = qHTS for Antagonists of gsp, the Etiologic Mutation Responsible for Fibrous Dysplasia/McCune-Albright Syndrome: qHTS. gsp-mutant cells, cAMP HTRF, 30 min; control for the full effect not named in the record. Potency, µM (doses to about 76.9 µM), inactives show at the top dose activity change, negative = inhibition, hits mostly inhibitors. hit rate 0.4% among 340,000. AID 624288, 2012; active = falling curve of any shape with a large fitted effect; inconclusive = falling curve, mostly with a smaller effect; inactive = flat or rising curve; cell line not stated here;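 also: intracellular cAMP measured with PDE inhibitor Ro 20-1724 present during compound exposure; potency is read from the fitted curve at half-maximal effect; % is scaled to controls: 0 for no effect and ±100 for the full control effect; nearly all actives have a fitted effect of over 65% in size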
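HTRF cAMP read-out (cAMP-d2 plus anti-cAMP antibody-K in lysis buffer, 30 min RT). Before lysis, cells are exposed to compounds with […] for 30 min at 37C in DPBS containing Ca/Mg, BSA and Tween 20.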
gsp ag = qHTS for Agonist of gsp, the Etiologic Mutation Responsible for Fibrous Dysplasia/McCune-Albright Syndrome: qHTS. gsp mutant cells, cAMP HTRF, 30 min; control for the full effect not named in the record. hit rate 0.13% among 340,000. AID 624287, 2012. Potency, µM (titrated, usually from 76.9 µM), inactives show top-dose activation (cAMP increase), hits mostly activators; active = well fitted activation curve with a large enough effect; inconclusive = small, poorly fitted or top-dose-only effect, or another doubt; inactive = no such curve, though single readings can be large or run the other way; cell line not stated here;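 also: phosphodiesterase inhibitor Ro 20-1724 added with compounds to block cAMP breakdown; potency is read from the fitted curve at half-maximal effect; nearly all actives have a fitted effect of over 60% in size; about a fifth of the inactives were tested at one dose only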
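Cells in DMEM/10% FBS with G418 were pretreated with compounds in DMSO plus […] (300 uM stock) for 30 min at 37C. cAMP was measured by HTRF (cAMP-d2 plus anti-cAMP antibody-K) after 30 min at room temperature.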
CtBP-E1A inh = qHTS Assay for Inhibitors of the CtBP/E1A Interaction | CtBP / adenovirus E1A interaction (AlphaScreen) | AlphaScreen GST-E1A/His-CtBP binding, 1536-well; hits give low values; control for the full effect not named in the record | activity change, % (test concentration not listed) | hit rate 0.49% among 340,000 | AID 651724, 2012; in the data active means activity change below about -65%; inconclusive means about -30% to -65%; inactive means above about -30%; also: % is scaled to controls: 0 for no effect and ±100 for the full control effect; compound concentration not given in the record
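Steps: dispense buffer (Tris pH 8.0, NaCl 300 mM, TCEP 1 mM, BSA, Tween 20); add 5X protein mix (GST-E1A, His-CtBP, 125 nM each); pin 23 nL compound; 2 h at 37 °C, dark; add 5X beads (50 ug/mL); 1 h; read.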
Six1-Eya2 inh = qHTS Assay for Inhibitors of the Six1/Eya2 Interaction; hit rate 0.56% among 360,000; activity change, % (no concentration beside the values); Homeobox protein SIX1 (Homo sapiens) + Protein phosphatase EYA2 (Homo sapiens), …; AID 651725, 2012; AlphaScreen GST-Six1/His-Eya2 binding, biochemical; hits give low values; control for the full effect not named in the record; in the data active = activity change below about -65%; inconclusive = about -30% to -65%; inactive = above about -30%; also: % is scaled to controls: 0 for no effect and ±100 for the full control effect; compound concentration not given in the record
Target sequence (O00167 whole entry, looked up): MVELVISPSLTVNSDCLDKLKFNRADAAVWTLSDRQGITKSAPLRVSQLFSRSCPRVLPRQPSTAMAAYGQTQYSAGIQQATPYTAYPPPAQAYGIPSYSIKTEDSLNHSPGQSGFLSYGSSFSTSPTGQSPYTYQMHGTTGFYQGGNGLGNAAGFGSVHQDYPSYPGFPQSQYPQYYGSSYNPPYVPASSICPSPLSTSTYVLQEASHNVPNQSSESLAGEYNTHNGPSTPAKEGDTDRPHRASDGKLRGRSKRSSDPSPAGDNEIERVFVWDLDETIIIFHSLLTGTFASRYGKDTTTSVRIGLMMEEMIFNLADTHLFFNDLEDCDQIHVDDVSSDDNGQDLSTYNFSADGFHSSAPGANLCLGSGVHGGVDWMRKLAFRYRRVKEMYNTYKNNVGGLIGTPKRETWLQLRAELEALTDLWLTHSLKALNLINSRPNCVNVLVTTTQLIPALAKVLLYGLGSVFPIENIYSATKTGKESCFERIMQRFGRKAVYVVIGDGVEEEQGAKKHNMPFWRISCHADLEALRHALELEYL
Target sequence (Q15475 whole entry, looked up): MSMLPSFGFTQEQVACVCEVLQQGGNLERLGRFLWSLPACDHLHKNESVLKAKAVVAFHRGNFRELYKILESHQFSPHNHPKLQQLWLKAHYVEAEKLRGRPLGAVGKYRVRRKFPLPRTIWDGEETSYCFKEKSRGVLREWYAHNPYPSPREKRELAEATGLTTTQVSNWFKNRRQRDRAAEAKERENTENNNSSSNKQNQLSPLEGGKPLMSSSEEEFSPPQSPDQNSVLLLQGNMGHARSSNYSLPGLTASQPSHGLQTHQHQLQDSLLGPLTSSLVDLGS
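AlphaScreen luminescence read after one hour at 37 °C in darkness. Pin-transferred compounds met GST-Six1 and His-Eya2 protein (5X stock 250 nM/500 nM) plus glutathione donor and Ni-chelate acceptor beads (5X, 50 ug/mL).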
* = called active by the depositor; u = inconclusive; x = no result given; [ ] = dose if it differs, or a comment.

CtBP-E1A inh	D2 agonist	gsp antagonist	Six1-Eya2 inh	D2 PAM	gsp ag	smiles
-7	-1.5	5%	7	-5	-6%	CC(=O)Oc1cccc(/C=N\NC(=O)C(=O)N/N=C/c2cccc(OC(C)=O)c2)c1
-6	-3.2	-8%	-9	-14	-26%	COc1ccc(/C(C)=N/NC(=O)CNC(=O)C(c2ccccc2)c2ccccc2)c(OC)c1
1	-2.2	4%	1	-9	u	Fc1ccccc1COc1cccc(/C=N/n2cnnc2)c1
7	-0.1	32µM*	5	4	u	Cc1ccc(S(=O)(=O)Nc2nc3ccccc3nc2Nc2cccc(S(=O)(=O)N3CCCC3)c2)cc1
1	3.4	13%	4	17	-7%[15.4 µM]	CCOC(=O)c1ccc(NC(=S)NN2CCOCC2)cc1
x	-2.6	5%	0	2	5%	CC(C(=O)Nc1ccc2c(c1)OCO2)N1CCC(N2CCCCC2)CC1 (stereo not given)
6	-2.0	x	-4	-12	x	COc1ccccc1CNC(=O)C1(C)CCN1Cc1ccc(OC(F)(F)F)cc1 (stereo not given)
5	-1.6	-5%	16	4	1%[15.4 µM]	Cc1cc2c(cc1S(=O)(=O)Nc1cccc(F)c1C)NC(=O)CO2
-12	2.8	2%	-27	12	-8%[15.4 µM]	O=C(Cc1ccc(S(=O)(=O)N2CCOCC2)s1)Nc1ccc(S(=O)(=O)N2CCCCC2)cc1
-1	-3.2	7%	-1	-3	-26%	COc1ccccc1NC(=O)N1CCCC1C(=O)Nc1ccc2c(c1)OCCO2 (stereo not given)
-10	-0.5	3%	-5	-7	-34%[inhibitor]	C/C(=N\NC(=O)c1cccc(S(=O)(=O)Nc2cccc(Cl)c2)c1)c1cccs1
1	0.3	6%	0	-1	8%	CN1CCN(S(=O)(=O)c2ccc3ccccc3c2)CC1
-3	-3.7	-1%	-5	-2	-1%	O=C(NCCCN1CCOCC1)c1cc(-c2ccc(F)cc2)nc2ccccc12
-16	0.3	-3%	-10	-3	2%[15.4 µM]	COc1ccc(C2=NN3C(C2)c2ccccc2OC3c2cccs2)cc1 (stereo not given)
4	-2.6	x	-1	9	-5%[15.4 µM]	O=C(COC(=O)CCC(=O)c1cccs1)NCc1ccccc1
-6	3.3	-34%	-1	-4	26%	Cc1cc(NC(=O)CSc2nc3c(c(=O)n2CCc2ccccc2)SC(C)C3)no1 (stereo not given)
0	-3.0	7%	-7	-13	-3%	O=S(=O)(c1cccc(Br)c1)N1CCN(CCc2ccccc2)CC1
u	-5.4	1%	u	-9	11%[15.4 µM]	O=C(/C=C/c1ccc(Cl)cc1)N1CCN(c2c(Cl)cccc2[N+](=O)[O-])CC1
13	-3.2	10%	4	-9	-12%	CCOc1nc(-c2ccc(OC)cc2)ccc1-c1noc(-c2ccncc2)n1
4	-3.6	6%	3	-7	-21%	CCC(C)NC(=O)C1c2ccccc2C(=O)N1Cc1cc(OC)ccc1OC (stereo not given)
5	-6.2	u	-6	1	0%	CCOc1ccc(C2NC(=O)C(C#N)=C(S)N2c2ccc(OC)cc2)cc1OC (stereo not given)
0	-3.7	-1%	5	-3	-98%[inhibitor]	CSc1ccc(/C=c2\s/c(=C\C(=O)C(C)(C)C)n(CC(=O)NCCC3=CCCCC3)c2=O)cc1
3	-2.3	1%	0	-5	-4%	O=C(O)c1cc(/C=N\O)ccc1OCc1ccccc1
-10	-8.0	11%	-2	-21	-11%[15.4 µM]	CC(C)(C)NC(=O)c1ccccc1NC(=O)C1CC(=O)N(C2CCCCC2)C1 (stereo not given)
9	-3.4	0%	-7	-8	0%[15.4 µM]	CSCCC(NC(=O)c1ccccc1Cl)C(=O)Nc1ccncc1 (stereo not given)
-4	-0.1	6%	-6	-4	-18%	O=C(O)COc1ccccc1C=NNc1ccc([N+](=O)[O-])cc1S(=O)(=O)Nc1ccc(Cl)cc1
3	-0.7	3%	7	-3	24%[15.4 µM]	CCc1nnc(NC(=O)c2cc([N+](=O)[O-])ccc2N2CCOCC2)s1
-6	6.3	-22%	-4	-3	-6%	COc1ccc(CC2=C(O)c3ccccc3C(=O)C2=O)cc1
-10	-3.9	15%	-6	-2	u	Nc1ccc(-c2nc3cc(N)ccc3o2)cc1
2	3.3	10%	1	-2	1%	CCOC(=O)C1(CC2CCCCO2)CCN(S(=O)(=O)c2ccc(C)s2)CC1 (stereo not given)
-22	3.0	-4%	-3	-1	9%	CCOc1ccc(-n2c(=O)c3sccc3n(CC(=O)NC3CCCCC3)c2=O)cc1
x	-3.9	-3%	6	-12	u	C[C@@H](NC(=O)[C@@H]1Cc2ccccc2CN1)C(=O)NCC1CCCO1 (stereo not given in full)
-2	1.7	u	-5	2	-10%[15.4 µM]	CCOc1ccc(CCNC(=O)c2ccc(Cl)c(S(=O)(=O)N3CCOCC3)c2)cc1OCC
-4	0.9	27%	u	-3	9%	c1ccc(-c2csc(Nc3cccnc3)n2)nc1
5	-2.2	-7%	0	-9	4%	Cc1cc2nncn2c(Cc2ccccc2)n1
-3	-2.9	-13%	-4	0	26%	Cc1cc(Br)ccc1NC(=S)NC1CCCC1
x	-4.5	6%	22	-5	-65%[inhibitor]	Cn1cc(CN2C[C@H]3CC[C@H]2C3)c(-c2ccccc2F)n1
0	0.7	-13%	-14	-4	-12%	Cc1ccc(C)c(NC(=O)CN(C)C(=O)c2cc(-c3cccs3)nn2-c2ccccc2)c1
5	-2.3	5%	4	15	0%	CCN(CC)c1ncn(Cc2c(Cl)cccc2Cl)c2ncnc1-2
0	-1.1	8%	4	7	-27%	CC1CCCN(S(=O)(=O)c2ccccc2[N+](=O)[O-])C1 (stereo not given)
7	4.1	-7%	5	-4	7%	CCOc1ccc(S(=O)(=O)N2CCN(C(=O)C3CC3C)CC2)cc1 (stereo not given)
9	-5.1	8%	-1	-13	-62%[inhibitor]	Cc1c(CN2CCC(n3nccc3NC(=O)C3CCOC3)CC2)[nH]c2ccccc12 (stereo not given)
x	-4.7	-2%	-2	-19	-14%	CSC1=NCCCN1C(=O)c1c(-c2ccccc2Cl)noc1C
-2	-3.1	0%	-1	-25	19%	Cc1cc(O)c(/C=N/c2ccccn2)c(=O)o1
2	-2.4	-18%	-2	7	28%	COC(=O)c1ccccc1NC(=O)c1cc2nc(C3CC3)cc(C(F)(F)F)n2n1
5	-0.6	7%	1	-2	2%[15.4 µM]	CN(C)c1nc(C(=O)O)nc(N2CCOCC2)n1
-8	-2.3	-7%	-3	-17	-4%	O=C(NCc1ccco1)c1ccccc1-c1nc(-c2ccccc2)no1
-2	0.4	10%	0	-1	0%	COc1ccccc1/C=C(\NC(=O)c1ccccc1)C(=O)NCc1ccco1
0	-5.4	9%	-1	5	-27%	CC1(C)CC(NCc2ccc3c(c2)OCO3)CCO1 (stereo not given)
-5	u	x	6	-2	-1%	CCOCCC(=O)Nc1ncc(S(=O)(=O)c2ccc([N+](=O)[O-])cc2)s1

(further entries)
CtBP-E1A inh	D2 agonist	gsp antagonist	Six1-Eya2 inh	D2 PAM	gsp ag	smiles
1	-1.3	19%	2	-5	14%	Cn1c(CC(=O)Nc2ccc(Cl)c(Cl)c2)nnc1SCC(=O)Nc1nccs1
x	-3.3	-16%	-9	-6	u	O=C(CN1C(=O)c2ccccc2C1=O)Nc1cc([N+](=O)[O-])ccc1O
-27	-2.5	-1%	-11	-4	6%[15.4 µM]	COc1ccc(Br)cc1/C=N/N1C(=O)CSC1=S
x	-6.1	1%	0	-4	-33%[inhibitor]	COc1cc(NC(=O)COC(=O)CSc2ccccc2F)c(C)cc1[N+](=O)[O-]
1	8.6	0%	-7	u	8%	O=C(Nc1ccc(O)cc1)C1CC=CCC1 (stereo not given)
-14	-8.0	-22%	-9	-27	-37%[inhibitor]	CC(=O)N1N=C(c2cccc([N+](=O)[O-])c2)OC1c1ccccc1Cl (stereo not given)
-9	-1.3	-6%	-14	1	u	Cc1ccc(C(=O)C2=C(O)C(=O)N(Cc3cccnc3)C2c2ccc(Cl)cc2)o1 (stereo not given)
6	-3.9	-18%	-2	-10	-33%[inhibitor]	CCOC(=O)c1cc2occc2n1Cc1c(F)cccc1Cl
0	-0.3	u	18	-29	6%	Cc1cc(OC(F)F)ccc1NC(=O)Nc1ccc([N+](=O)[O-])cc1
5	0.6	-4%	10	-2	x	COc1cccc(-c2ncc3ccccc3c2COC(=O)CCCC(=O)O)c1
-7	-2.7	-35%	-8	-8	-45%[inhibitor]	CCOc1ccc2nc(SCC(=O)Nc3ccc4c(c3)OCCO4)[nH]c2c1
3	-1.6	2%	7	-20	16%	CCn1c(C)nc2cc(C(=O)NNS(=O)(=O)c3ccc(C)c(C)c3)ccc21
-21	-0.2	-4%	3	-17	6%[15.4 µM]	CSc1cccc(NC(=O)C2CCN(C(=O)c3ccccc3C)CC2)c1
